Bioassay records as filed in PubChem.
NPYLR7 ag = mosquito NPYLR7 agonism. HEK293T NPYLR7/Galpha15, GCaMP6s calcium fluorescence. activation, % at 10 µM. hit rate 0.15% among 270,000; in the data active = activation above about 40%;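 note: 0% = vehicle and 100% = reference agonist at the receptor; some compounds past the cut are filed as inactive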
NPYLR7 ag max-min = second read-out of NPYLR7 ag, no call of its own (marks repeat the call); activation, %; measured here: Max-Min RFU normalised activation; some inactives read as strong as hits;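 span of the calcium signal over five minutes; 0% = vehicle and 100% = native peptide agonist; compound fluorescence can raise it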
* hit, by the source's call; & = joins results of further samples. A portion of the library (hit frequency here may not be typical).

structure | NPYLR7 ag | NPYLR7 ag max-min
COc1ccc2cc(-c3[nH]ncc3CN3CCN(c4ccc(Cl)cn4)CC3)ccc2c1 | -6.3 | -6.4
CCOC(=O)[C@H](CCc1ccccc1)N[C@H](C)C(=O)N1C2CCCCC2C[C@H]1C(=O)O (stereo partly specified) | -3.0 | -10.3
CCOc1ccc(-n2nnc3c(=O)n(CC(=O)NC4CCCCC4)cnc32)cc1 | 7.9 | 10.6
Cc1cc(C)cc(OCC(=O)N2CCNCC2)c1 | 10.3&6.2 | 7.2&6.8
CCCCOc1ccc(C(=O)N2CCN(c3ncnc4c3nnn4Cc3ccccc3)CC2)cc1 | -4.2 | -14.7
Cc1cc(N2CCN(C)CC2)nc(SCc2cccc(C(=O)NCc3cccnc3)c2)n1 | -11.7 | 6.1
O=C(O)CCc1cccs1 | 0.6 | -2.0
CC(=O)c1ccc(NC(=O)CSc2nc(-c3ccccc3F)nc3c2c(=O)n(C)c(=O)n3C)cc1 | -5.5 | -9.5
COc1cc(-c2cc(C(=O)N/N=C\c3c[nH]c4ccccc34)[nH]n2)ccc1OC(C)C | -1.6 | -4.8
Cc1cc(C)c2c(n1)nn1c(NCCN(C)C)cc(C)nc21 | -2.7 | 17.5
CC(C)C(C)NC(=O)c1cc(-c2ccccc2)nc2cc(C(C)(C)C)nn12 (stereo unspecified) | 10.3 | 11.1
CC(C)(NC(=O)c1cccs1)C(=O)NC[C@H]1CCc2ccccc2O1 | 14.7 | 2.7
CNc1nc2cnc(Nc3ccc(F)cc3)cc2n1-c1cccc(C(F)(F)F)c1 | 2.8 | -7.2
COc1ccc(S(=O)(=O)NC(C)c2ccncc2)cc1F (stereo unspecified) | 2.2 | 0.2
Cc1ccccc1Nc1nc(NCCN(C)C)nc2c1cnn2-c1ccccc1 | 3.2 | 2.0
Cc1ccccc1-c1nc(OCC(C)C)nn1-c1ccc(NC(=O)COCc2ccccc2)cc1 | -1.5 | -1.0
CC1(C)CC(CCN)(c2ccc(F)cc2)CCO1 (stereo unspecified) | -10.1 | -16.3
CN(Cc1ccccc1)c1ccc(S(=O)(=O)N2CCCCC2)cn1 | 0.9 | -2.7
COc1ccc(C(=O)CSc2nnc(NC(=O)C3CCC3)s2)cc1 | -2.1 | 0.8
Cc1cc(NCCc2ccccc2)n2ncc(-c3ccccc3)c2n1 | -5.3 | -7.8
COc1ccccc1C1OC(=O)CC1C(=O)OC[C@@H]1CCCN2CCCCC12 (stereo partly specified) | 2.1 | 1.5
COc1ccc2c(c1)C(C(=O)O)=CC(C)(C)O2 | 0.5 | 11.4
CCCn1c(C(=O)Nc2cccc(NC(C)=O)c2)cc2c(=O)n(C)c(=O)n(C)c21 | -2.1 | -2.8
Cc1nc(C2CCNCC2)cc(N2CCC(C(=O)NCc3ccco3)CC2)n1 | -4.6 | -10.2
COc1ccccc1CN1CCCn2cccc2C1c1cccc(Oc2ccccc2)c1 (stereo unspecified) | 9.3 | 7.6
CCOc1ccccc1-c1cc(-c2nnc(SCc3ccc(C#N)cc3)n2C)c2ccc(Oc3ccccc3)cc2n1 | -2.5 | -0.4
O=C(Cc1ccccc1F)NNC(=O)c1cncn1-c1ccc(F)cc1 | 6.1 | 8.2
CCOC(=O)c1c(NC(=O)Cc2ccccc2)sc(C(=O)Nc2ccccc2C)c1C | -2.9 | -9.7
O=C1CC2C3C4C5C(C2C5(Br)C32OCCO2)C14Br (stereo unspecified) | -0.5 | -0.5
O=C(CSc1ccccc1)N1CCCN(c2nc(Cc3ccc(F)cc3)ns2)CC1 | 16.2 | 23.2
Fc1ccc(N=Cc2ccncc2)cc1F | 0.7 | 0.6
CCOc1ccccc1NC(=O)CSc1cn(CC(=O)N2CC(C)OC(C)C2)c2ccccc12 (stereo unspecified) | 1.0 | -4.9
CO[C@H]1CN(C(=O)Nc2ccccc2-c2ccccc2)[C@H]2Cc3c([nH]c4ccccc34)[C@@H]1C2 | 16.9 | 21.2
Cc1cccc(N2CCC(N3CCC4(CCCN(CC5CCC5)C4)C3)CC2)c1 (stereo unspecified) | 15.4 | 4.8
c1ccc(C2CC(=NN3CCOCC3)c3ccccc3O2)cc1 (stereo unspecified) | 1.7 | -1.3
CC1(C)CC(=O)C2=C(C1)OC(=N)C(C#N)C2c1ccco1 (stereo unspecified) | -13.8 | -22.8
COc1cc(NC(=O)C2C3CC4CC(C3)CC2C4)cc(OC)c1OC (stereo unspecified) | 10.2 | 11.7
Cc1ccc(C=Nn2c(C)cc(C)c(C#N)c2=O)o1 | 2.3 | -1.6
CCCOC(=O)c1ccc(NC(=O)c2cc(CCC)[nH]n2)cc1 | -2.0 | 1.1
Cc1cc(C)c(C)c(S(=O)(=O)N2CCC(C(=O)N3CCCC(C)C3)CC2)c1C (stereo unspecified) | 13.7 | 6.9
CC(C)C1CN(CCc2c[nH]c(=O)n(C)c2=O)CCC(=O)N1CC1CC1 (stereo unspecified) | -0.9 | -2.9
CC(NC(=O)c1ccc2oc(CCc3ccccc3)nc2c1)c1ccncn1 (stereo unspecified) | 3.6 | 4.2
CC(Oc1cccc(Br)c1)C(=O)NNC(=O)c1ccc[nH]c1=O (stereo unspecified) | 2.1 | -1.3
CCCN(CCC(=O)Nc1cccc(F)c1)c1nc(CC)nc2cc(Cl)ccc12 | -0.4 | 1.6
O=C(CNC(=O)c1ccncc1)N=Nc1c(O)n(CCc2ccccc2)c2ccccc12 | -7.9 | -15.4
N#CC1(c2nc3ccccc3s2)Cc2ccccc2N2CCCC21 (stereo unspecified) | -13.5 | -17.1
Cc1cccc(-n2c(CCc3nc4ccccc4[nH]3)n[nH]c2=O)c1 | 20.4 | 14.8
COC(=O)[C@@H]1C[C@@H](N(C)C)CN1C(=O)c1cc2ccccn2n1 | -5.3 | -5.3
CCC1CN(C(=O)Nc2ccc(F)cc2Br)CCO1 (stereo unspecified) | -1.0 | 1.6
CCOC(=O)c1c(NC(=O)CSc2nc(C)nc3sc4c(c23)CCC4)sc2c1CCC2 | 2.4 | -1.6
C=CCCC(O)CN(Cc1ccccc1)Cc1cccn1Cc1ccccc1F (stereo unspecified) | 25.4 | 33.2
Cc1cc(C)c(C(=O)N2CCC3(C=Cc4ccccc43)CC2)c(=O)[nH]1 | 4.4 | 0.6
CSCCC(=O)N1CCN(Cc2cc(=O)c(OCc3ccc(-c4ccccc4C#N)cc3)co2)CC1 | 4.7 | 6.9
Cc1nccn1-c1ccc(CNC(=O)c2c(O)cccc2O)cc1 | -0.2 | -4.6
N#Cc1c(Cl)nsc1NCCC1CC2CCC1C2 (stereo unspecified) | 3.6 | -2.1
CC(=O)N1CCN(C(=O)CS(=O)(=O)Cc2ccccc2)CC1 | 1.4 | 19.3
COCC(=O)N1CCN(C(=O)CCN2CCc3sccc3C2c2cccc(F)c2)CC1C (stereo unspecified) | 6.8 | -4.3
COc1cc(Nc2nnc(C(O)c3cccs3)s2)cc(OC)c1OC (stereo unspecified) | 0.9 | 0.7
CCOc1ccc(NC(=O)c2cccnc2NC2CCCC2)cc1F | 10.4 | 8.8
Cn1cc(/C=C/C(=O)N2CCCC2c2ccc(Cl)c(Cl)c2)c(=O)n(C)c1=O (stereo unspecified) | -2.1 | 16.8

New compounds follow.
structure | NPYLR7 ag | NPYLR7 ag max-min
Cc1cccc(C)c1OC1CN(C(=O)c2cn(CC3CCCNC3)nn2)C1 (stereo unspecified) | 2.3 | 16.4
COc1ccc(-c2sc(C)nc2C)c2cccnc12 | 10.4 | 8.7
Cc1nn(CCNC(=O)C2CC(=O)N(Cc3ccccn3)C2)c(C)c1Cl (stereo unspecified) | 9.8 | 7.4
Cc1ccc(-c2nc3scc(CCNS(=O)(=O)N(C)C)n3n2)cc1 | 2.7 | 5.7
CC1(C)O[C@@H]2C[C@@](OCc3ccccc3C#N)(C(=O)NCC3CCCO3)CC(OCc3ccc(F)cc3)[C@@H]2O1 (stereo partly specified) | 7.1 | 16.8
COc1ccccc1OC1CCN(Cc2cn[nH]c2-c2ccc(C)c(C)c2)CC1 | 5.8&-1.4 | 3.9&-3.6
COc1ccc(-c2ccc(=O)n(CCNS(=O)(=O)c3cc(C)c(OC)c(C)c3C)n2)cc1 | -5.6 | -5.4
CN(CCc1ccccn1)[C@@H]1[C@H](O)[C@H](CO)O[C@@H]1CNC(=O)C1CCCC1 | -13.0 | -14.2
COc1cc2c(cc1OC)C(C)N(Cc1nc(-c3ccco3)oc1C)CC2 (stereo unspecified) | -0.9 | -4.1
CC1CCCN(Cc2csc(NC(=O)c3cccc(I)c3)n2)C1 (stereo unspecified) | 2.2 | 2.1
COC(=O)C(NC(=O)CC(C)C)(Nc1ccccn1)C(F)(F)F (stereo unspecified) | 7.5 | 10.2
CCC(=O)NC1CCCN(C(=O)Nc2cccn(C)c2=O)C1 (stereo unspecified) | 2.9 | -0.8
CC(C)Cn1c(-c2ccccc2)cn2c3c(=O)n(C)c(=O)n(C)c3nc12 | 1.9 | 5.9
Cc1cccc(COC(CN2CCN(C(=O)C(C)Oc3ccccc3)CC2)c2ccc(Cl)cc2)c1 (stereo unspecified) | -4.3 | -0.4
CCOC(=O)N1CCN(Cc2nc3c(c(=O)n(C)c(=O)n3C)n2Cc2ccc(F)cc2)CC1 | 0.5 | -1.8
COc1ccc([C@@H](C)n2ccnc2-c2cnc(N3CCCC3)nc2)cc1 | 15.2 | 4.1
Cc1ccc(S(=O)(=O)N2CCN(c3ccc(F)c(Cl)c3)C(=O)C2C)cc1 (stereo unspecified) | -3.0 | 1.2
CCCn1ccnc1CN1C[C@@H](C(=O)O)C[C@@H](C(=O)N2CCCC2)C1 | 9.1 | 6.6
CCN(CC)Cc1c(C)[nH]c2c(C)cc(C)cc2c1=O | 2.4 | 1.2
COc1cc2c(cc1OC)C(c1cccc(C(F)(F)F)c1)N(C(=O)COc1ccc(Cl)cc1)CC2 (stereo unspecified) | 18.8 | 15.6
COc1cccc(N2C(=O)C3C4C=CC(C4=C4CCCC4)C3C2=O)c1 (stereo unspecified) | 3.9 | 2.7
CC(=O)N1N=C(c2nc(Cl)ccc2Cl)OC1(C)c1ccc(Br)cc1 (stereo unspecified) | 9.0 | 8.8
NC1CCN(c2ccccc2C(=O)NCc2ccccc2)CC1 | 4.3 | 6.1
Cc1c(C)n2c3c(=O)n(CC=Cc4ccccc4)c(=O)n(C)c3nc2n1CC1CCCO1 (stereo unspecified) | 2.2 | 3.1
C=C1CCC2C(CC2(C)C)C(=C)CC/C1=N\O (stereo unspecified) | 3.1 | -4.2
COc1cccc(CO[C@]2(C(=O)NCC3CCCO3)CC(OCc3ccc(C(F)(F)F)cc3)[C@@H]3OC(C)(C)O[C@@H]3C2)c1 (stereo partly specified) | 33.4 | 19.8
CCOC(=O)C(Oc1ccc2c(C)c(CC(=O)OC)c(=O)oc2c1C)c1ccccc1 (stereo unspecified) | -14.3 | -20.5
Cc1nc(C2CC(=O)OC23CCCCC3)cs1 (stereo unspecified) | 15.2 | 9.7
COc1ccc(CN(CCC2(Cc3ccccc3)CCOC(C)(C)C2)C(C)=O)cc1 (stereo unspecified) | -8.0 | -11.5
O=C(CCN1CCCCO1)NC1CCCc2c1cnn2-c1ccc(F)cc1F (stereo unspecified) | -3.9 | -3.9
CCCCCCC(=O)Nc1ccc(N2CCCC2)c(C(=O)N2CCCC2)c1 | -6.4 | -4.4
FC(F)(F)c1cc(-c2ccc(Cl)cc2)nc2ncnn12 | -1.5 | -4.6
COc1cccc(OC)c1-c1ccc(-n2cncc2C(=O)NCC(C)(c2ccccc2)c2ccccc2)cc1 | 11.4 | 12.2
Cc1nn(C(C)C)c(C)c1NC(=O)Nc1cccc(CN2CCC(O)CC2)c1 | 7.3 | 7.6
Cc1ccc(C(CN2CCOCC2)NC(=O)c2ccccc2F)cc1 (stereo unspecified) | 0.1 | 0.0
CCOC(=O)c1nn(-c2ccc(Cl)cc2)c(=O)c2c(NC(=O)C3CCCC3)scc12 | 8.2 | 3.3
O=C1c2cccc3c(N=Cc4ccccc4O)ccc(c23)C(=O)N1c1ccccc1 | -5.5 | -9.3
N#Cc1c(N)nc2c(c1-c1cccnc1)CCCCCC2 | 1.3 | 0.0
COCCCN(CC(=O)N(CCc1ccc(OC)c(OC)c1)Cc1sccc1C)C(=O)Nc1ccccc1Br | 20.3 | 23.7
CNC(=O)CN(C)C(=O)c1cc(Br)c(OCc2ccccc2)c(OC)c1 | 11.3 | 10.0

Part of the list above in a different format:
Value order: NPYLR7 ag, NPYLR7 ag max-min
> CC(=O)N1CCN(C(=O)CS(=O)(=O)Cc2ccccc2)CC1
 : 1.4, 19.3
> COCC(=O)N1CCN(C(=O)CCN2CCc3sccc3C2c2cccc(F)c2)CC1C (stereo unspecified)
 : 6.8, -4.3
> COc1cc(Nc2nnc(C(O)c3cccs3)s2)cc(OC)c1OC (stereo unspecified)
 : 0.9, 0.7
> CCOc1ccc(NC(=O)c2cccnc2NC2CCCC2)cc1F
 : 10.4, 8.8
> Cn1cc(/C=C/C(=O)N2CCCC2c2ccc(Cl)c(Cl)c2)c(=O)n(C)c1=O (stereo unspecified)
 : -2.1, 16.8

Carrying on.
structure | NPYLR7 ag | NPYLR7 ag max-min
O=C(Cc1cccc(I)c1)Nc1ccn[nH]1 | 2.2 | -0.1
COc1ccc(C)cc1CN1CCN(CN2C(=O)NC3(C2=O)C(C)CCCC3C)CC1 (stereo unspecified) | -1.9 | -1.4
Cc1nc2ccccn2c(=O)c1NC(=O)Nc1ccc(F)c(Cl)c1 | 0.6 | -0.8
COCCn1c(S(=O)(=O)CCOC)nc(C)c1C | 7.4 | 6.5
CCN1CCc2c(sc3nc(Cc4ccccc4)nc(N4CCN(S(=O)(=O)c5ccc(F)cc5)CC4)c23)C1 | 2.9 | 4.5
CC1(C)CC(=O)C(Sc2ccc(I)cc2)=C(N2CCOCC2)C1 | -0.4 | 4.0
Cc1ccc(Cc2nc(N3CCN(C(=O)CSc4ccccc4)CC3)c3c(-c4cccnc4)noc3n2)cc1 | 19.2 | 5.5
CC(C)Cc1cc(C(=O)O)n(C)n1 | 0.0 | 3.4
CC(C)OC(=NCCN1CCCCC1)NC(=O)c1cccc(F)c1 | 0.6 | 4.1
COc1cccc(-c2cc(=O)c3ccccc3o2)c1N | 1.8 | -27.8
CCSC1=C(C#N)C(=O)NC(c2ccco2)S1 (stereo unspecified) | 0.6 | -2.0
